Assay outcomes (PubChem)
Menin-MLL FL inh: menin-MLL binding inhibition, fluorescein peptide; Fluorescence polarization, fluorescein-MLL peptide displacement from menin; 290,000 tested, under 10 active; FP activity change, % at 61.4 µM; AID 1766; inconclusive = falling polarisation curve, or a change in total fluorescence; inactive = total fluorescence flat and polarisation flat or rising; no compound was filed as active; the % refers to the polarisation; negative = inhibition;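 further: % of control where 0% means no effect; inhibitors lower the polarisation; unlabelled MLL peptide was the positive control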
gsp antagonist: gsp mutant antagonism; gsp-mutant cells, cAMP HTRF, 30 min; control for the full effect not named in the record; Potency, µM (highest dose often 76.9 µM), inactives show top-dose activity change, negative = inhibition, hits mostly inhibitors; 340,000 compounds, 0.4% hits; AID 624288; active = falling curve of any shape with a large fitted effect; inconclusive = falling curve, mostly with a smaller effect; inactive = flat or rising curve; cell line not stated here;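 further: intracellular cAMP measured with PDE inhibitor Ro 20-1724 present during compound exposure; potency means the concentration at half of the fitted maximal effect; on the % scale 0 is the no-effect control and ±100 the full control effect; nearly all actives have a fitted effect of over 65% in size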
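HTRF cAMP measurement after 30 min RT detection following 30 min, 37C compound treatment alongside […] (added as 300 uM solution) in G418-selected cells seeded at 2000/well and grown 16–24 h.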
D2 potentiator: human D2 receptor positive allosteric modulation; potentiation, % (no concentration beside the values); DiscoveRx D2 beta-arrestin cells, luminescence, 90 min; 100% = 57 uM dopamine signal; AID 624464; 360,000 compounds, 0.23% hits; active = potentiation of 50% or more; inconclusive = 30% to 50%; inactive = 30% or less;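 further: compound concentration not given in the record; tested on top of an EC20 dose of dopamine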
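PathHunter beta-arrestin assay in DiscoveRx D2 cells. Compounds were added with an EC20 of dopamine (50 nM final) for 90 min at 37 deg C. Luminescence was read 1 h after detection reagent, with 57 uM dopamine as the EC100 control.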
ClpP mod: qHTS Assay for Activators of ClpP; purified B. subtilis ClpP, FRET peptide cleavage, 20 min; Potency, µM (top dose mostly 57.5 µM), without a hit: at the top dose activity change, negative = active; 340,000 compounds, 1.9% hits; AID 651965, 2013; active = well fitted falling curve with a large enough effect; inconclusive = small, poorly fitted or top-dose-only effect; inactive = no such curve, though single readings can be large or run the other way; further: potency means the concentration at half of the fitted maximal effect; the source files actives as falling curves though it sought activators and does not explain the sign; nearly all actives have a fitted effect of over 65% in size; many hits overshoot -100%
Target sequence (P80244 whole entry, looked up): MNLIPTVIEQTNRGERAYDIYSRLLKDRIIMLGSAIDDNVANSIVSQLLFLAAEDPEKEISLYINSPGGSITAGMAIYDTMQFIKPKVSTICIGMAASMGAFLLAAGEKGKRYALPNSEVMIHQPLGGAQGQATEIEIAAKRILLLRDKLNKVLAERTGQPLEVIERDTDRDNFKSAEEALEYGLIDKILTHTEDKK
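ClpP 10 microg/mL final, pH 8 Tris/KCl buffer with BSA, glycerol, Tween-20; compound pinned in; FRET-FV substrate; RT 20 min; Ex320/Em430; ΔFRET vs ADEP 5.8 microM, DMSO, no enzyme.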
TRPV1 PAM: human TRPV1 potentiation; Q8NER1; AID 540277; 320,000 compounds, 0.02% hits; potentiation, % at 8.33 µM; TRPV1-expressing cells, Fluo-8 calcium influx, capsaicin EC20 potentiation; host cell line not named in the record; control for the full effect not named in the record; active means potentiation above 80%; inconclusive means 30% to 80%; inactive means below 30%; further: 0% is about no effect
Target sequence (Q8NER1 whole entry, looked up): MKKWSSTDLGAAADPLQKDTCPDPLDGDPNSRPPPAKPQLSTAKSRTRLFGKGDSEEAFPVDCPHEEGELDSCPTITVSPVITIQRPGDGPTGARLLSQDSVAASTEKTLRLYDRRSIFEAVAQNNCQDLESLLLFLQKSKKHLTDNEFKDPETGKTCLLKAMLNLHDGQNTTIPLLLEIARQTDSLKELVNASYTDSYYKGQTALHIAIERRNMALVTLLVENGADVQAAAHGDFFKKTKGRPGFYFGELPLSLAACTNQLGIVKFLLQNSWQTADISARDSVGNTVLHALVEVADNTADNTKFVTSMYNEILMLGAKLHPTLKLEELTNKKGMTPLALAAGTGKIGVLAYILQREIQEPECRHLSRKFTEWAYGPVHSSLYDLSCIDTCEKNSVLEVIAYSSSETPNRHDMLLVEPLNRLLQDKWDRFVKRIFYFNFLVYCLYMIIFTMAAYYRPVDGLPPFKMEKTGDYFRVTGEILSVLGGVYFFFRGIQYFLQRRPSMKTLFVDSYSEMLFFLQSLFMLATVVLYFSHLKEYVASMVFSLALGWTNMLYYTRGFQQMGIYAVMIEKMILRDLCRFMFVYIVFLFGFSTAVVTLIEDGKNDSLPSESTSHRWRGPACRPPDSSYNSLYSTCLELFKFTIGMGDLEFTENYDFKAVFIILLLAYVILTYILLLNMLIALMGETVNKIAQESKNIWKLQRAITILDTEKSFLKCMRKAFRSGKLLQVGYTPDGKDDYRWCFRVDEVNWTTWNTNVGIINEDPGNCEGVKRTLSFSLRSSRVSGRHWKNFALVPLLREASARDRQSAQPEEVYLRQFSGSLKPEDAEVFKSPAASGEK
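Cells expressing TRPV1 were dye-loaded with Fluo-8 and read kinetically: 10 s baseline, 3 min after compound (agonist portion), then 2 min after EC20 capsaicin (allosteric enhancer portion). Calcium-bound dye fluorescence at 480/520 nm.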
Sfp PPTase inh: inhibitors of Bacillus subtilis Sfp phosphopantetheinyl transferase; Q9F4F7; Biochemical Sfp PPTase activity, qHTS; Potency, µM, for inactives: max response, negative = inhibition, hits mostly inhibitors; 310,000 compounds, 3.5% hits; AID 1490; active means well fitted inhibition curve with a large enough effect; inconclusive means small, poorly fitted or top-dose-only effect, or another doubt; inactive means no such curve, though single readings can be large or run the other way;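 further: the enzyme is Sfp with the accession as filed and its product quenches rhodamine fluorescence; potency means the concentration at half of the fitted maximal effect; 0% = enzyme reaction without inhibitor and -100% = no enzyme wells; top concentration of the series not given in the record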
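Fluorescence-quenching assay with 15 nM Sfp, 5 uM rhodamine-CoA and 12.5 uM BHQ-2-labelled ybbR peptide in pH 7.6 Hepes/MgCl2 buffer. Enzyme was pre-incubated with compound for 15 min at room temperature. Rate was taken from the 30-min fluorescence change (525/598 nm).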
gsp ag: agonists of gsp mutant (McCune-Albright syndrome); gsp mutant cells, cAMP HTRF, 30 min; control for the full effect not named in the record; Potency, µM (top dose mostly 76.9 µM), inactives show at the highest dose activation (cAMP increase), usual class: activators; 340,000 compounds, 0.13% hits; AID 624287; active = well fitted activation curve with a large enough effect; inconclusive = small, poorly fitted or top-dose-only effect, or another doubt; inactive = no such curve, though single readings can be large or run the other way; cell line not stated here;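 further: phosphodiesterase inhibitor Ro 20-1724 added with compounds to block cAMP breakdown; potency means the concentration at half of the fitted maximal effect; nearly all actives have a fitted effect of over 60% in size; about a fifth of the inactives were tested at one dose only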
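Cells stably selected in G418 were plated at 2000/well, grown 16-24 hr, then given compounds in DMSO with the PDE inhibitor […] (300 uM solution added) for 30 min at 37C; cAMP was read by HTRF.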
An asterisk follows results filed as active; ? = inconclusive; nt = not tested or not shown; & = joins results of further samples; [ ] = remark or other dose.

SMILES | Menin-MLL FL inh | gsp antagonist | D2 potentiator | ClpP mod | TRPV1 PAM | Sfp PPTase inh | gsp ag
CC(C)(Oc1ccc(CCNC(=O)c2ccc(Cl)cc2)cc1)C(=O)O | 1.0 | 2% | 1 | 0.2% | -3 | 22%&-6%&12%&17%&45% | nt
Cc1cc(C)c(NC(=O)COC(=O)COc2ccc3c(C)cc(=O)oc3c2)c(Cl)c1 | nt | -13% | -3 | 3.9% | -6 | nt | 2%
Cc1ccc(S(=O)(=O)N2CCOCC2)cc1NC(=O)C1=NN(c2ccccc2)C(=O)CC1 | nt | 3% | -8 | 0.0% | -2 | 13% | 2%
CCSc1cc(N2CCCC2)nc(-c2ccc(Cl)cc2)n1 | nt | 10% | -6 | -4.6% | -4 | nt | 18%
N=C(N)SCc1nc2ccccn2c1Br | -0.7 | 5% | -22 | -3.1% | 9 | 4% | 19%
COC(=O)C(C)N(C#N)c1nc(C)nc(C)n1 (stereo not given) | 0.7 | 5% | -7 | -1.8% | -1 | 6% | -29%
O=c1[nH]nc2n1CCCCC2 | 0.4 | 4% | 4 | 0.5% | -8 | 16% | -6%
CCOC(=O)CSCc1nc(-c2ccc(Cl)cc2)oc1C | 4.0 | -6% | -2 | ? | 0 | 13% | ?
COc1ccc(OCCCC(=O)OCC(=O)c2ccc3c(c2)NC(=O)CO3)cc1 | nt | 4% | 12 | nt | -1 | nt | -6%[15.4 µM]
COc1ccc(-c2nc3ccccc3nc2-c2ccc(OC)cc2)cc1 | 0.0 | -19% | 1 | 4.2% | -19 | 10% | -10%
O=C(c1cccc(C(F)(F)F)c1)C1CCCN(C(=O)Cn2cncn2)C1 (stereo not given) | nt | 15% | -11 | 1.4% | 0 | 5% | -19%
CC1=NN(C(=O)COc2ccccc2)C(O)(c2cccnc2)C1 (stereo not given) | 0.3 | 9% | -6 | -0.6% | 5 | 14% | -41%[inhibitor]
O=C(CN1CCN(c2ccccc2O)CC1)Nc1cc(S(=O)(=O)N2CCCC2)ccc1Cl | nt | ? | 3 | -1.0% | 13 | nt | -2%
CCOCCCNC(=O)c1cn(CC(C)C)c(=O)c2cc(OC)c(OC)cc12 | -0.8 | -4% | -4 | -29% | 0 | 25% | -48%[inhibitor]
Cc1c(/C=N/NC(=O)C2(O)c3ccccc3-c3ccccc32)cnn1C | 0.8 | 2% | -4 | 1.3% | -4 | -19% | 12%
COc1ccccc1NC(=O)/C(=C/c1cccs1)NC(=O)c1ccco1 | 2.1 | -11% | -6 | nt | -6 | 13% | -8%[15.4 µM]
O=C(O)c1cn(Cc2ccccc2)nc1-c1cccnc1 | -0.5 | 6% | 8 | -1.2% | -5 | 19% | ?
Cc1cc(N=Nc2ccccc2C(=O)O)c(C)c(C)c1O | ? | ? | -2 | -8.4% | 9 | 0% | -61%[inhibitor]
COc1ccc(N2C(=S)NC3N2C(=S)NC3(C)c2ccccc2)cc1 (stereo not given) | -0.5 | 11% | 10 | nt | 9 | ? | 9%[15.4 µM]
NS(=O)(=O)c1ccc(CCNC(=O)COC(=O)/C=C/c2ccccc2Cl)cc1 | 0.5 | -7% | -9 | nt | -25 | 6% | -5%[15.4 µM]
Cc1ccc(CN2CCNC(=O)C2CC(=O)N(Cc2c(C)nn(C)c2C)C2CC2)o1 (stereo not given) | -5.5 | 7% | -1 | nt | 3 | 6% | -8%[15.4 µM]
CC(NC(=O)c1cccnc1Sc1ccccc1)c1ccc(S(N)(=O)=O)cc1 (stereo not given) | nt | 9% | -7 | 0.2% | 0 | 11% | -4%
CCC1(C)Cc2[nH]c(=O)c(C#N)cc2CO1 (stereo not given) | 3.5 | 7% | -6 | nt | 1 | 11% | ?
CC1(C)COC(c2cccc(C3=NC(C)(C)CO3)n2)=N1 | 5.4 | 13% | 4 | -2.9% | -4 | ? | -13%
CC1CCCC(C)N1CCCNC(=O)c1csc2c1CCCCC2 (stereo not given) | nt | 14% | -15 | -2.4% | -10 | -5% | ?
Cc1onc(-c2ccccc2Cl)c1NC(=O)NCc1cccs1 | 1.0 | -9% | -4 | nt | 0 | 12% | 2%[15.4 µM]
Cc1ccc(NC(=O)Nc2ncnc3nc[nH]c23)cc1 | -0.9 | -14% | -15 | -0.3% | -5 | 11% | 4%
COC(=O)C1=C(C)N(CC2CC2)C(=NCc2cccc(Cl)c2)N[C@H]1c1ccccc1 | -2.9&14 | 9% | -14 | -5.2% | -3&15 | 20%&-4% | nt
CCCC1(c2ccccc2)NC(=O)N(CC(=O)Nc2ccc3c(c2)OCCO3)C1=O (stereo not given) | nt | 7% | -9 | -1.6% | nt | nt | -7%
COC(=O)c1cccc(S(=O)(=O)N2CCC(NC(=O)Nc3cccc(F)c3)CC2)c1 | 0.5 | -6% | -13 | 1.2% | -8 | 35%[activator] | 3%

Four structures out of the list, sorted by count of non-hydrogen atoms, largest number first:
SMILES | Menin-MLL FL inh | gsp antagonist | D2 potentiator | ClpP mod | TRPV1 PAM | Sfp PPTase inh | gsp ag
COc1ccc(N2C(=S)NC3N2C(=S)NC3(C)c2ccccc2)cc1 (stereo not given) | -0.5 | 11% | 10 | nt | 9 | ? | 9%[15.4 µM]
Cc1cc(N=Nc2ccccc2C(=O)O)c(C)c(C)c1O | ? | ? | -2 | -8.4% | 9 | 0% | -61%[inhibitor]
Cc1ccc(NC(=O)Nc2ncnc3nc[nH]c23)cc1 | -0.9 | -14% | -15 | -0.3% | -5 | 11% | 4%
CCC1(C)Cc2[nH]c(=O)c(C#N)cc2CO1 (stereo not given) | 3.5 | 7% | -6 | nt | 1 | 11% | ?

(list continues)
SMILES | Menin-MLL FL inh | gsp antagonist | D2 potentiator | ClpP mod | TRPV1 PAM | Sfp PPTase inh | gsp ag
CCCSc1ncnc2sc(C)c(C)c12 | -0.3 | -6% | -11 | -3.1% | 1 | 7% | 35%
Cc1noc(NS(=O)(=O)c2ccc(N/C=C\C(=O)c3ccc4c(c3)OCO4)cc2)c1C | 2.1 | -8% | -3 | -2.2% | -3 | -24% | 13%
CCOC(=O)Cc1csc(NC(=O)Cc2cccs2)n1 | -0.9 | -12% | -6 | -1.4% | 27 | 8% | ?
CCCC(=O)Nc1cc(-c2nnc(OC)c3ccccc23)ccc1N1CCOCC1 | nt | -3%[15.4 µM] | -12 | -8.5% | nt | nt | -63%
CCN(CC)S(=O)(=O)c1cccc(C(=O)OCC(=O)Nc2ccc3c(c2)c2ccccc2n3CC)c1 | 8.4 | -1% | -5 | -23% | 6 | 2% | -1%
Cc1ccc(S(=O)(=O)NCC(=O)NC2CCCC2)cc1 | -2.0 | 18% | -5 | 1.2% | -9 | 3% | 9%
CC(OC(=O)CC1CC2CCC1C2)C(=O)Nc1ccc(C(N)=O)cc1 (stereo not given) | nt | 6% | 2 | 1.4% | 3 | nt | 3%
CCOc1ccc(-c2noc(CCC(N)=O)n2)cc1OCC | -0.2 | 5% | 9 | -0.9% | -13 | -10% | 1%
Cc1occc1-c1nnc(SC(C)C(=O)Nc2ccccc2F)o1 (stereo not given) | nt | 12% | 20 | -2.3% | -1 | nt | -35%[inhibitor]
Cc1cc(/C=C2/C(=N)N3C(c4ccccc4)=CSC3=NC2=O)c(C)n1-c1ccccc1 | 13 | 17% | -7 | -0.9% | 2 | -20% | 0%[15.4 µM]
Cc1ccc(NC(=O)C2CCCN2C(=O)NC2CCCCC2)cc1 (stereo not given) | 4.0 | -1% | -8 | 1.5% | -2 | 2% | -66%[inhibitor]
COc1cc(OC)c2ccc(=O)oc2c1C(CC(=O)N1CCCC(C)C1)c1ccc2c(c1)OCO2 (stereo not given) | 5.3 | -22% | -7 | -11% | -13 | -3% | nt
C[C@H](CO)N1C[C@H](C)[C@@H](CN(C)S(=O)(=O)c2ccc(F)cc2)Oc2ccc(NC(=O)Nc3ccc(C(F)(F)F)cc3)cc2C1=O | nt | 6% | ? | -0.8% | nt | nt | nt
CCC(=O)N(c1nnc(SCC(=O)NN2C(=O)NC3(CCC(C)CC3)C2=O)s1)C1CC1 (stereo not given) | nt | 12% | 0 | 1.5% | -1 | nt | ?
O=C(N/N=C\c1ccc(-c2ccc(Cl)c(Cl)c2)o1)C(=O)N1CCCC1 | -1.0 | 6% | 3 | 0.2% | -6 | ? | -18%
COc1ccc(NC(=O)C(=O)NCCC2CCCCN2S(=O)(=O)c2ccccc2)cc1 (stereo not given) | nt | 6% | 6 | -3.1% | 1 | nt | 4%
O=[N+]([O-])c1cccc(S(=O)(=O)N2CCCC2)c1 | 4.8 | -2% | -29 | 0.4% | -11 | 11% | -28%
Cc1c(NC2=C(Cl)C(=O)N(c3ccccc3Cl)C2=O)c(=O)n(-c2ccccc2)n1C | 7.2 | 5% | -6 | 3.8% | 29 | 50µM* | -23%
COc1cc(-c2nnc(SCc3ccccc3Cl)o2)cc(OC)c1OC | 1.2 | 1% | -2 | -5.8% | -9 | -11% | 6%
COc1ccc(OC)c2[nH]c(=O)c(CCNC(=O)CC(C)C)cc12 | 2.6 | -1% | -4 | -6.2% | -6 | 9% | 19%
Cc1cc(NC(NC(=O)c2ccco2)(C(F)(F)F)C(F)(F)F)no1 | 4.4 | 10% | -12 | 0.6% | -2 | 4% | 7%
C#CCNC(=O)C1=C[C@@H](c2csc3ccccc23)[C@H](CCCO)[C@@H](OCC)O1 | 0.8 | -12% | -5 | -5.2% | -1 | 3% | 2%
CCOc1ccc(-c2nc(CSCC(=O)NC3CC3)c(C)o2)cc1 | nt | -19% | 2 | 4.3% | -18 | 12% | -24%
Cc1nc(C)n(CC(O)COc2ccc3c(c2)CCC3)n1 (stereo not given) | 3.7 | 6% | 14 | -0.4% | -9 | 9% | -5%
O=C(NCc1ccc(F)cc1)c1cc(S(=O)(=O)N2CCOCC2)ccc1F | -2.3 | 1% | -13 | -0.4% | -6 | 13% | 17%
O=C(COc1ccc(Br)cc1Cl)NC1CCN(Cc2ccccc2)CC1 | nt | -3% | -23 | 1.0% | -7 | 11% | -17%

The order is random (roughly 5.1% active in at least one column).
